Screening data as filed in PubChem BioAssay.
N370S GC mod – inhibitors or activators of N370S glucocerebrosidase for Gaucher disease; P04062; N370S GC spleen homogenate, 4MU-glucoside fluorescence; Potency, µM (series often up to 59.4 µM), without a hit: at the highest dose activity change, negative = inhibition, most hits filed as inhibitors; actives 0.092% (n = 330,000); AID 2101; active means well fitted inhibition curve with a large enough effect;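 further: 0% = full enzyme activity and -100% = no enzyme basal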
Starred values were filed as active, the others as inactive. Potency means the concentration at half of the fitted maximal effect. Some of the compounds tested; most or all hits stand in other tables.

CC1CCCN(C(=O)COC(=O)C2CCN(S(=O)(=O)c3ccc4c(c3)OCCO4)CC2)C1 (stereo not given) was read as N370S GC mod -11%.
Screening Cc1ccc(C(=O)Nc2ccc3c(c2)OCO3)cc1S(=O)(=O)N1CCCCC1 returned N370S GC mod 7%.
CCCn1c(CCc2ccccc2)n[nH]c1=S was read as N370S GC mod 0%.
Cn1c(C(=O)O)c(CC(=O)Nc2ccc3c(c2)OCCO3)c2ccccc21 was read as N370S GC mod 0%.
`CCOC(=O)c1oc2ccc(S(=O)(=O)N3CCC(C)CC3)cc2c1C` gave N370S GC mod 9%.
Screening CCN(CC)S(=O)(=O)c1ccc(NC2=NS(=O)(=O)c3ccccc32)cc1 returned N370S GC mod 2%.
Screening O=S(=O)(Nc1nc2ccccc2nc1N1CCN(c2ccccn2)CC1)c1ccc(Cl)cc1 returned N370S GC mod -1%.
`Cc1ccc(C(=O)NCC(=O)OCC(=O)N(CC(C)C)c2c(N)n(Cc3ccccc3)c(=O)[nH]c2=O)cc1` gave N370S GC mod -5%.
Screening O=C(c1ccccc1)N(Cc1ccc(F)cc1)C1CCS(=O)(=O)C1 (stereo not given) returned N370S GC mod 6%.
Screening S=C(NCCN1CCOCC1)Nc1ccc(Cl)cc1Cl returned N370S GC mod -28%.
For CC(C)(C)C(=O)COC(=O)CNC(=O)c1ccc(Oc2ccccc2)cc1 the results were N370S GC mod 7%.
Screening COc1ccc(NC(=O)CSc2nnnn2C2CC3C=CC2C3)cc1 (stereo not given) returned N370S GC mod -12%.
COc1ccccc1C(=O)NCCCNc1ccc([N+](=O)[O-])cc1 was read as N370S GC mod 2%.
Screening COc1ccccc1N(CC(=O)NCCSC(C)(C)C)S(C)(=O)=O returned N370S GC mod 5%.
Screening COc1cc(CN(C(=S)NCC(=O)NC2CC2)C2CCCC2)cc(OC)c1OC returned N370S GC mod 14%.
For CC(C)C[C@H](NC(=O)[C@@H]1Cc2ccccc2CN1)C(=O)Nc1ccc(C(C)C)cc1 the results were N370S GC mod -12%.
For CC(C)(C)NC(=O)CN(C(=O)C1(C)CC(=O)N=C2C=CC=CN21)C1CCCC1 (stereo not given) the results were N370S GC mod 12%.
`Cc1ccc(S(=O)(=O)NCCC(=O)NC2CCCC2)cc1` gave N370S GC mod 1%.
Screening COc1cc(-c2nc(S(=O)(=O)c3ccccc3)c(N3CCOCC3)o2)cc(OC)c1OC returned N370S GC mod 4%.
Screening Cc1cccc(NC(=O)CSCC(=O)Nc2ccccc2N2CCCC2)c1 returned N370S GC mod 2%.
Screening COc1ccccc1NC(=O)c1sc2ncn(Cc3ccccc3C)c(=O)c2c1C returned N370S GC mod 5%.
Screening Fc1cccc(Cc2noc(CN3CCCN(C4Cc5ccccc5C4)CC3)n2)c1 returned N370S GC mod -9%.
Screening NC(=O)C(c1ccccc1)C1CCCCC1 (stereo not given) returned N370S GC mod 0%.
Screening Cc1nnsc1C(=O)N/N=C/c1ccc(OC(F)(F)F)cc1 returned N370S GC mod -10%.

Gathered by group: those above with a Cl atom.
Screening O=S(=O)(Nc1nc2ccccc2nc1N1CCN(c2ccccn2)CC1)c1ccc(Cl)cc1 returned N370S GC mod -1%.
Screening S=C(NCCN1CCOCC1)Nc1ccc(Cl)cc1Cl returned N370S GC mod -28%.

The main list resumes, repeating the three entries before the break.
Screening Fc1cccc(Cc2noc(CN3CCCN(C4Cc5ccccc5C4)CC3)n2)c1 returned N370S GC mod -9%.
Screening NC(=O)C(c1ccccc1)C1CCCCC1 (stereo not given) returned N370S GC mod 0%.
Screening Cc1nnsc1C(=O)N/N=C/c1ccc(OC(F)(F)F)cc1 returned N370S GC mod -10%.
Screening COCCN(C(=O)Cc1cccs1)C(C(=O)NC1CCCC1)c1ccc(OC)c(OC)c1 (stereo not given) returned N370S GC mod 13%.
S=C(Nc1ccccc1)N1CCN(c2ccccn2)CC1 was read as N370S GC mod -2%.
COc1ccc2ccccc2c1/C=N\n1c(C)cc(C)c(C(N)=O)c1=O was read as N370S GC mod 10%.
COc1cc2c(cc1OC)CN(Cc1cc(=O)oc3cc(C)c(C)cc13)CC2 was read as N370S GC mod -14%.
`COc1ccc(NC(=O)CNC(=O)Cn2cnc3sc4c(c3c2=O)CCCC4)cc1OC` gave N370S GC mod 2%.
For CCc1ccc(NC(=O)CN2CCCN(S(=O)(=O)c3ccc(F)cc3)CC2)cc1 the results were N370S GC mod -7%.
`Cc1ccc(S(=O)(=O)N2CCN(C(=O)C3CC3C)CC2)c(C)c1` (stereo not given) gave N370S GC mod -4%.
`S=C(Nc1ccccc1)N(CCN1CCOCC1)Cc1cccc(Cl)c1` gave N370S GC mod -5%.
O=C(O)c1ccccc1-c1ccccc1C(=O)Nc1ccccc1-c1ccccc1 was read as N370S GC mod 1%.
For Cc1cc(NC(=O)CSc2nc(Cc3ccc(O)cc3)c(C)[nH]2)no1 the results were N370S GC mod 0%.
Cc1ccc(F)c(CNC(=O)C2CCC(=O)N(CCCN3CCCC3=O)C2)c1F (stereo not given) was read as N370S GC mod 1%.
`Cc1noc(C)c1CSc1nnc(-c2cc(Cl)ccc2Cl)n1N` gave N370S GC mod -1%.
O=C(O)c1cnn(-c2ccccc2)c1-c1ccccc1 was read as N370S GC mod 3%.
For O=C(COC(=O)CCOc1ccccc1)NCc1ccco1 the results were N370S GC mod 1%.
Screening COC(=O)Nc1ccc2c(c1)OCO2 returned N370S GC mod 1%.
For Cc1ccc(NC(=O)CSCC(=O)Nc2cccc3ncccc23)cc1 the results were N370S GC mod 5%.
For CN(c1ccccc1)S(=O)(=O)c1ccc(-c2ccccc2)cc1 the results were N370S GC mod 21%.
Screening CCCCCc1c(C)nc(N2CCc3ccccc32)[nH]c1=O returned N370S GC mod -4%.
For CCOc1ccc(NC(=S)NC(=O)C2CCCC2)cc1 the results were N370S GC mod 2%.
`Cc1ccc(NS(=O)(=O)c2ccc3c(c2)C(=O)c2ccccc2C3=O)c(C)c1` gave N370S GC mod 3%.
O=C(Nc1ccc(F)cc1F)c1ccco1 was read as N370S GC mod -1%.
Screening CCCN1C(=O)N(c2cccc(C)c2)C(C)(O)CC1(C)C (stereo not given) returned N370S GC mod 3%.
For C/C(=N/NC(=O)CNC(=O)c1cccnc1)c1ccc([N+](=O)[O-])cc1 the results were N370S GC mod -10%.
Cc1ccc(-c2noc(CN3CCN(c4ccccc4F)CC3)n2)cc1 was read as N370S GC mod 4%.
For CCC(C)(C)NC(=O)c1ccc2c(c1)OCCO2 the results were N370S GC mod 0%.
CC1CC(C)CN(C(=O)COC(=O)c2cc(S(=O)(=O)N3CCOCC3)ccc2F)C1 (stereo not given) was read as N370S GC mod 0%.
`Cc1c(NC(=S)Nc2ccccc2C(F)(F)F)cccc1[N+](=O)[O-]` gave N370S GC mod 24%.
`Cc1nc(CSc2nnc3scc(-c4ccccc4)n23)cs1` gave N370S GC mod -1%.
CC(C)(C)C(=O)Nc1nc(C2CCCN2S(=O)(=O)c2ccc(Cl)cc2)cs1 (stereo not given) was read as N370S GC mod 9%.
Screening COc1c(Cl)cc(Cl)cc1CNc1ccc(S(N)(=O)=O)cc1 returned N370S GC mod 11%.
`Cc1nn(C)c(C)c1/C=C1/SC(=S)NC1=O` gave N370S GC mod 0%.
CC(Sc1nc2cc(Cl)ccc2s1)C(=O)Nc1cccc(S(=O)(=O)N2CCOCC2)c1 (stereo not given) was read as N370S GC mod -7%.
COc1ccc(-c2cc(C(=O)Nc3c(C)n(C)n(-c4ccccc4)c3=O)c3ccccc3n2)c(OC)c1 was read as N370S GC mod -1%.
Screening CCOc1ccc(CCNC(=O)c2cc(=O)[nH]c3ccc(S(=O)(=O)N(CC)CC)cc23)cc1OCC returned N370S GC mod -1%.
For O=S(=O)(c1ccc(Cl)nc1)N(Cc1ccccc1)Cc1ccccc1 the results were N370S GC mod 12%.
For CCCc1cc(=O)oc2cc(C)cc(OC(C)C(=O)NCCCN3CCOCC3)c12 (stereo not given) the results were N370S GC mod -15%.

Already shown: seven of the compounds above.
Screening COC(=O)Nc1ccc2c(c1)OCO2 returned N370S GC mod 1%.
For Cc1ccc(NC(=O)CSCC(=O)Nc2cccc3ncccc23)cc1 the results were N370S GC mod 5%.
For CN(c1ccccc1)S(=O)(=O)c1ccc(-c2ccccc2)cc1 the results were N370S GC mod 21%.
Screening CCCCCc1c(C)nc(N2CCc3ccccc32)[nH]c1=O returned N370S GC mod -4%.
For CCOc1ccc(NC(=S)NC(=O)C2CCCC2)cc1 the results were N370S GC mod 2%.
`Cc1ccc(NS(=O)(=O)c2ccc3c(c2)C(=O)c2ccccc2C3=O)c(C)c1` gave N370S GC mod 3%.
O=C(Nc1ccc(F)cc1F)c1ccco1 was read as N370S GC mod -1%.

Next results follow:
`Cc1ccccc1NS(=O)(=O)c1nnc(NC(=O)c2ccc(Br)cc2)s1` gave N370S GC mod 6%.
COc1ccc(C)cc1NS(=O)(=O)c1ccc(NS(=O)(=O)c2ccc(NC(C)=O)cc2)cc1 was read as N370S GC mod -3%.
CC1CC=C2C(C#N)=C(N)C(C#N)(C#N)C(c3cccs3)C2C1 (stereo not given) was read as N370S GC mod 1%.
Cc1ccc(S(=O)(=O)N(C)c2ccc(OCC(=O)N3CCCC(C(F)(F)F)C3)cc2)cc1 (stereo not given) was read as N370S GC mod -4%.
`CC1c2ccccc2N(NC(=O)Cc2ccccc2)C1C` (stereo not given) gave N370S GC mod 3%.
`CCN(CC)c1nc2c(s1)C(=O)CC(C)(C)C2` gave N370S GC mod -3%.
Clc1ccccc1CN1CCN(/N=C/C=C/c2ccco2)CC1 was read as N370S GC mod -3%.
For CC(OC(=O)C1CC(=O)N(Cc2ccccc2)C1)C(=O)Nc1ccccc1[N+](=O)[O-] (stereo not given) the results were N370S GC mod -1%.
CC(Oc1ccccc1)C(=O)Nc1ccc(S(=O)(=O)N2CCOCC2)cc1 (stereo not given) was read as N370S GC mod -7%.
Cc1ccc(S(=O)(=O)CCC(=O)O)cc1C was read as N370S GC mod 0%.
`O=C1N=C(N2CCOCC2)CS1` gave N370S GC mod 6%.
Screening CC(C)CNC(=O)COC(=O)c1ccccc1OCC(=O)Nc1ccc(Br)cc1 returned N370S GC mod 6%.
Screening COc1cccc(N2CCN(CC(=O)NC(=O)NCc3ccco3)CC2)c1 returned N370S GC mod -15%.
`O=C(N/N=C/c1ccc(OC(F)F)cc1OC(F)F)c1cccc(S(=O)(=O)N2CCOCC2)c1` gave N370S GC mod -4%.
Screening Cc1cc(C)c(C(N)=O)c(Nc2cccc(Cl)c2)n1 returned N370S GC mod 9%.
`Cc1nc2c(sc3nc4c(cc32)COC(C)(C)C4)c(=O)n1Cc1ccccc1` gave N370S GC mod 3%.
O=C(Nc1cccc2ncccc12)C(Cl)(Cl)Cl was read as N370S GC mod 7%.
O=C(CSc1nnc(COc2ccc(Cl)cc2Cl)o1)Nc1ccccn1 was read as N370S GC mod 29%.
Cc1nc(NCCc2ccc(F)cc2)c(C#N)c(C)c1[N+](=O)[O-] was read as N370S GC mod -14%.
Screening COCCn1c(CN2CCc3ccccc3C2)nc2c1c(=O)n(C)c(=O)n2C returned N370S GC mod -1%.
Screening CN(Cc1nc(-c2ccccn2)no1)S(=O)(=O)c1ccc(Br)cc1 returned N370S GC mod 11%.
C[C@@H]1CN(c2nc3nonc3nc2N2CCSCC2)C[C@H](C)O1 was read as N370S GC mod -4%.
COc1ccc(C(=O)NCC2OCCc3ccccc32)c(O)c1 (stereo not given) was read as N370S GC mod -11%.
`CCn1nnc(NC(=O)C(C)(c2ccccc2)c2ccccc2)n1` gave N370S GC mod -3%.

Among those listed so far, these have a tert-butyl group:
For CC(C)(C)C(=O)COC(=O)CNC(=O)c1ccc(Oc2ccccc2)cc1 the results were N370S GC mod 7%.
Screening COc1ccccc1N(CC(=O)NCCSC(C)(C)C)S(C)(=O)=O returned N370S GC mod 5%.
For CC(C)(C)NC(=O)CN(C(=O)C1(C)CC(=O)N=C2C=CC=CN21)C1CCCC1 (stereo not given) the results were N370S GC mod 12%.
CC(C)(C)C(=O)Nc1nc(C2CCCN2S(=O)(=O)c2ccc(Cl)cc2)cs1 (stereo not given) was read as N370S GC mod 9%.

The listing continues.
`S=C1NCN(Cc2cccnc2)CN1c1cccc2ccccc12` gave N370S GC mod 1%.
For COCCCNC(=O)CCn1c(=O)c2ccccc2n(CC(=O)Nc2ccc(C)cc2C)c1=O the results were N370S GC mod 6%.
`COc1ccc([N+](=O)[O-])cc1NC(=O)C(C)OC(=O)C1CC(=O)N(Cc2ccco2)C1` (stereo not given) gave N370S GC mod -14%.
For Cc1ccc(C)c(N2CCN(C(=O)c3cccn4c(=O)c5sccc5nc34)CC2)c1 the results were N370S GC mod 1%.
`CCn1cc(/C=C/C(=O)Nc2c(C)nn(Cc3ccccc3C)c2C)cn1` gave N370S GC mod -3%.
Screening Cc1c(C(=O)N2CCCCC2)c(S(=O)(=O)NCCc2ccc(S(N)(=O)=O)cc2)c(C)n1C returned N370S GC mod -4%.
Screening O=C(Nc1nc2c(Cl)cccc2s1)c1ccc(Br)o1 returned N370S GC mod 1%.
For O=C(Nc1cccc(F)c1)c1cccnc1 the results were N370S GC mod -4%.
`CC(C)NC(=O)Cn1nnc(-c2ccc(Cl)cc2)n1` gave N370S GC mod 16%.
Screening O=C(CSc1nc(O)c(Cc2ccccc2)c(=O)[nH]1)Nc1nnc(SCc2ccccc2)s1 returned N370S GC mod 2%.
C=CCC1(O)C(=O)N2C(=C1C(=O)OCC)c1ccc3ccccc3c1CC2(C)C (stereo not given) was read as N370S GC mod 9%.
O=C(c1ccc(C(F)(F)F)cc1)C1CCCN(C(=O)CN2C(=O)CSC2=O)C1 (stereo not given) was read as N370S GC mod 9%.
`O=C(CCc1nnc2ccc(N3CCCCC3)nn12)NCC1CCN(Cc2ccc(F)cc2)CC1` gave N370S GC mod -18%.
`CCOC(=O)Cn1c(-c2ccccc2)ccc(C#N)c1=O` gave N370S GC mod -11%.
For COc1cccc(CNC(=O)C2CCC(CNS(=O)(=O)c3cccc4cccnc34)CC2)c1 (stereo not given) the results were N370S GC mod 2%.
